# RE007 growth inh: qHTS Assay for Inhibitors of the HIV-1 protein Vpr. S. pombe RE007 Vpr strain, BacTiter-Glo ATP luminescence, 24 h; control for the full effect not named in the record. Potency, µM (series often up to 92.2 µM), for the others: top-dose activity change, negative = less growth. 0.21% of 360,000 active; active = well fitted falling curve with a large enough effect; inconclusive = small, poorly fitted or top-dose-only effect; inactive = no such curve, though single readings can be large or run the other way;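 note: % is set by controls: 0 for no effect and ±100 for the full control effect; nearly all actives have a fitted effect of over 50% in size; the assay follows cell death caused by Vpr and the record does not say whether a fall means rescue or toxicity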
#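 Fission yeast RE007 carrying one integrated HIV-1 vpr copy, seeded at OD 0.01 in PMG+AL medium with 23 nL pinned compound. Grown 24 h at 30 degrees; viability read by BacTiter-Glo luminescence after 5 min.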
# LASV entry inh: qHTS for Inhibitors of binding or entry into cells for Lassa Virus; Lassa virus pseudotype entry inhibition, cell reporter; control for the full effect not named in the record; Potency, µM (top dose mostly 37.9 µM), inactives show at the highest dose activity change, negative = inhibition, usual class: inhibitors; 1.2% of 300,000 active; AID 540256, 2011; active means well fitted inhibition curve with a large enough effect; inconclusive means small, poorly fitted or top-dose-only effect, or effect the other way; inactive means flat fitted curve, though single readings scatter; tested in HEK293 cells; note: % is set by controls: 0 for no effect and ±100 for the full control effect; nearly all actives have a fitted effect of over 50% in size; luciferase read-out
# Marburg entry inh: qHTS for inhibitors of binding or entry into cells for Marburg Virus. Marburg virus pseudotyped entry inhibition, cell reporter; control for the full effect not named in the record; about a third of the inactives were read at about 46 µM. Potency, µM (titrated, usually from 37.8 µM), inactives show at the top dose activity change, negative = inhibition, actives largely listed as inhibitors. 1.8% of 300,000 active; active = well fitted inhibition curve with a large enough effect; inconclusive = small, poorly fitted or top-dose-only effect, or effect the other way; inactive = flat fitted curve, though single readings scatter; tested in HEK293 cells; about a fifth of its hits are not listed in these tables; note: % is set by controls: 0 for no effect and ±100 for the full control effect; luciferase read-out
# SARS PLP yeast: qHTS of Yeast-based Assay for SARS-CoV PLP; AID 485353, 2010; 0.19% of 330,000 active; Potency, µM (top dose mostly 32.9 µM), for inactives: at the highest dose activity, positive = growth rescue; S. cerevisiae expressing SARS-CoV PLpro, growth rescue; control for the full effect not named in the record; note: 0% is about no effect; nearly all actives have a fitted effect of over 55% in size; growth read by luminescence after 48 h
# Cruzain noTriton: qHTS Assay for Promiscuous and Specific Inhibitors of Cruzain (without detergent); AID 1476, 2009; purified cruzain, Z-FR-AMC fluorescence, no detergent; Potency, µM, without a hit: max response, negative = inhibition, hits mostly inhibitors; Cruzipain (Trypanosoma cruzi), P25779; 2.3% of 200,000 active; active = well fitted curve in the direction sought with a large enough effect; inconclusive = small, poorly fitted or top-dose-only effect, or another doubt; inactive = no such curve, though single readings can be large; an effect the other way counts as inactive or inconclusive;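 note: plate controls were enzyme without inhibitor for no effect and buffer without enzyme for full effect; nearly all actives have a fitted effect of over 40% in size; top concentration of the series not given in the record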
# Target sequence (P25779 123-467 limits assumed): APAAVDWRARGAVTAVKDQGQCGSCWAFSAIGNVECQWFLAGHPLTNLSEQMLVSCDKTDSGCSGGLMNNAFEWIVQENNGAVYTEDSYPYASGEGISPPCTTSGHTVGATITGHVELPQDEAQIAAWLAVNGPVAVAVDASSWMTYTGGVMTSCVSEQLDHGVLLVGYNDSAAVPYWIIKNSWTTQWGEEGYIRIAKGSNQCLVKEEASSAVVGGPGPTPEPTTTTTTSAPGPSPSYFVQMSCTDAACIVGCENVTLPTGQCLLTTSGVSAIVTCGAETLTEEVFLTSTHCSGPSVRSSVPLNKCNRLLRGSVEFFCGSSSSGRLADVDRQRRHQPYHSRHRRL
#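 Detergent-free condition (0.00005% Triton X-100) in acetate buffer pH 5.5 with DTT. 1.5 nM enzyme and compound were pre-mixed 15 min, then 2 uM Z-FR-AMC substrate added; reaction progress from fluorescence change between first and third reads (60 s).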
# Cruzain inh Det: qHTS Assay for Promiscuous and Specific Inhibitors of Cruzain (with detergent). AID 1478, 2009. purified cruzain, Z-FR-AMC fluorescence, 0.01% Triton. 0.43% of 200,000 active. Cruzipain (Trypanosoma cruzi), P25779. Potency, µM, for inactives: max response, negative = inhibition, hits mostly inhibitors; active = well fitted curve in the direction sought with a large enough effect; inconclusive = small, poorly fitted or top-dose-only effect, or another doubt; inactive = no such curve, though single readings can be large; an effect the other way counts as inactive or inconclusive;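 note: plate controls were neutral wells for no effect and buffer without enzyme for full effect; nearly all actives have a fitted effect of over 40% in size; top concentration of the series not given in the record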
#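 In this qHTS format, compounds are incubated with 1.5 nM cruzain for 15 min at room temperature before 2 uM Z-FR-AMC is added. Release of AMC is followed at 360/450 nm, and progress is taken as the 60 s fluorescence difference.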
# StopGo reporter: High Throughput Screening for Foot and Mouth Disease Virus Antivirals. human cells with a luciferase reporter of 2A StopGo recoding; control for the full effect not named in the record. Potency, µM (doses to about 57.9 µM), for inactives: at the highest dose signal change, negative = less light. 1.2% of 410,000 active. AID 1159524, 2015; active = well fitted falling curve with a large enough effect; inconclusive = small, poorly fitted or top-dose-only effect; inactive = no such curve, though single readings can be large or run the other way; tested in HEK293T cells; note: % is set by controls: 0 for no effect and ±100 for the full control effect; nearly all actives have a fitted effect of over 45% in size; luciferase light after 4 h
# NS1 function inh: qHTS Assay for Inhibitors of Influenza NS1 Protein Function | S. cerevisiae slowed by influenza A NS1, growth recovery by OD600 | Potency, µM (series often up to 46.1 µM), for inactives: top-dose activity, positive = more growth | 0.4% of 270,000 active | AID 2326, 2010; note: actives are rising curves; nearly all actives have a fitted effect of over 50% in size
#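 Recovery from NS1-induced slow growth read by OD600 in budding yeast switched to galactose assay medium (pH 6.0, -URA) at 1:100 dilution. Compound 23 nl per well; the matching strain lacking NS1 serves as control.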
# Active calls of the source: *; ? = inconclusive; · = not tested or not shown; [ ] = another dose, or the depositor's remark. Unless noted, calls come from the whole dose curve; as a rule, active means well fitted rising curve with a large enough effect; inconclusive means small, poorly fitted or top-dose-only effect; inactive means no such curve, though single readings can be large or run the other way. Potency is the fitted concentration of half-maximal effect. No enrichment for hits; any-hit rate near 4.7%.
SMILES,RE007 growth inh,LASV entry inh,Marburg entry inh,SARS PLP yeast,Cruzain noTriton,Cruzain inh Det,StopGo reporter,NS1 function inh
CCN(CC)S(=O)(=O)c1cccc(C(=O)NCC(c2ccccc2)N(C)C)c1 (stereo not given),-4%,13%,0%[46.1 µM],-17%,·,·,-3%,·
CCCCNC(=O)c1cnc2sc(N3CCCCC3)nn2c1=O,·,-19%[46.1 µM],·,·,4%,-0.8%,-27%,·
Cc1ccc(SCC(=O)NCC2CCCO2)cc1 (stereo not given),-2%,·,·,0%,·,·,16%,-1%
CCN(CC(=O)NCc1ccc(Cl)cc1)C(=O)CN1C(=O)NC(CC)(c2ccccc2)C1=O (stereo not given),0%,-3%,-13%,11%,·,·,-7%,-8%
O=C(COc1ccccc1F)N1N=C(c2cccs2)CC1c1ccco1 (stereo not given),13%,-20%,?,-3%,·,·,5%,·
CC(C)(C)NC(=O)COc1ccc(-c2ccccc2)cc1,-10%,?,0%,-4%,6%,-3.3%,15%,-91%
CC1(c2ccc3ccccc3c2)NC(=O)N(CC(=O)N2CCN(S(=O)(=O)c3ccccc3F)CC2)C1=O (stereo not given),-14%,?,?,6%,·,·,?,24%
CC(=O)CSc1nc2cc3c(cc2cc1C#N)OCCO3,-7%,?,1.4µM*,-5%,·,·,-27%,·
COc1ccc(-c2cc3c(=O)n(CC(=O)Nc4cccc(Cl)c4)ncn3n2)cc1,24%,·,·,-6%,·,·,6%,-3%
O=C(COc1ccc(Cl)cc1Cl)NC(=O)NC1CCCC1,-18%,?,?,-4%,·,·,15%,·
CC(C)NC(=O)C1CCCN(c2nnc(-n3cccc3)s2)C1 (stereo not given),-7%,·,·,8%,-4%,-5.0%,-8%,-27%
Cc1cccn2c(=O)c3cc(C(=O)NCc4cccnc4)c(=N)n(CCCO)c3nc12,·,3%[46.1 µM],-2%[46.1 µM],·,8%,-19%,-11%,·
O=C(NCCS(=O)(=O)NCc1cccnc1)c1ccccc1,-4%,1%,?,10%,·,·,-26%,·
O=C(NCCN1CCN(C(=O)Nc2ccccc2)CC1)Nc1ccccc1,-6%,·,2%,-9%,-2%,-1.4%,-12%,-2%
Cc1ccccc1-c1cc2nc(C)c(Cl)c(=O)n2[nH]1,-8%,?,13µM*,·,·,·,41%[activator],·
N#CCc1c(C#N)c(N)nc(Nc2ccccc2)c1C#N,1%,·,·,1%,·,·,-20%,0%
O=C(c1ccco1)N1CCN(S(=O)(=O)c2ccc(Oc3ccccc3)cc2)CC1,-8%,-21%,?,-25%,13%,-5.5%,?,-82%
O=C(Cc1ccc(Cl)cc1)Nc1ncccn1,-3%,23%[46.1 µM],21%[46.1 µM],-1%,·,·,2%,5%
CC(=O)Nc1cccc(OCc2ccc(F)cc2)c1,14%,23%,?,-3%,·,·,11%,·
CC(C)c1ccc(NC(=O)N2CCN(S(=O)(=O)c3ccccc3)CC2)cc1,-9%,-4%[46.1 µM],24%[46.1 µM],1%,·,·,14%,-6%

# One compound at a time (already shown). Order of values: RE007 growth inh | LASV entry inh | Marburg entry inh | SARS PLP yeast | Cruzain noTriton | Cruzain inh Det | StopGo reporter | NS1 function inh
# O=C(c1ccco1)N1CCN(S(=O)(=O)c2ccc(Oc3ccccc3)cc2)CC1 is entered as -8% | -21% | ? | -25% | 13% | -5.5% | ? | -82%
# N#CCc1c(C#N)c(N)nc(Nc2ccccc2)c1C#N is entered as 1% | · | · | 1% | · | · | -20% | 0%

# The listing continues:
SMILES,RE007 growth inh,LASV entry inh,Marburg entry inh,SARS PLP yeast,Cruzain noTriton,Cruzain inh Det,StopGo reporter,NS1 function inh
COc1ccc(/C=N/n2c(C)nc3ccccc3c2=O)cc1OC,1%,8%,12%,1%,·,·,16%,4%
CN(c1cccc2cccnc12)S(=O)(=O)c1ccccc1,-10%,7%[46.1 µM],4%[46.1 µM],-1%,·,·,-25%,3%
CCc1cc2c(=O)n(-c3ccccc3)c(=S)[nH]c2s1,0%,?,-3%,2%,3%,2.0%,-11%,5%
Cc1cccc(N(C(=O)CCC(=O)Nc2cc(C)on2)C(C(=O)NC2CCCC2)c2ccncc2)c1 (stereo not given),-9%,13%,-15%,-1%,0%,2.4%,-11%,-20%
O=C(c1cccc(N2CCCC2=O)c1)N1CCC2(CC1)OCCO2,-18%,17%,25%,1%,-2%,6.0%,-22%,-4%
COc1ccc(-n2c(SCc3nnc(-c4ccccc4)o3)nnc2-c2ccccc2)cc1,3%,-11%,-1%,1%,-11%,1.3%,-18%,-43%
CCN(CCCNC(=O)c1cc2cc3ccc(OC)cc3nc2s1)c1ccccc1,·,?,?,-11%,32µM*,20µM*,12%,·
O=C1CN(C(=O)C2CCCCC2)C(c2ccccc2)c2cc(F)ccc2N1 (stereo not given),·,-4%[46.1 µM],21%[46.1 µM],·,8%,2.7%,-15%,·
c1csc(-c2csc3ncnc(NCCCN4CCOCC4)c23)c1,-4%,-19%,?,0%,-10%,-4.4%,?,-4%
OCCN(Cc1ccccc1)Cc1ccc(F)c(F)c1,-6%,-1%,9%,3%,4%,5.8%,-5%,7%
CCN(CC)S(=O)(=O)c1cc([N+](=O)[O-])ccc1NNC(=O)Nc1ccc(Cl)c(Cl)c1,24%,-8%,?,3%,?,-8.2%,?,24%
O=C(Nc1ccc(F)cc1)N1CCN(c2ccccc2F)CC1,·,0%[46.1 µM],?,·,9%,-2.2%,10%,·
NS(=O)(=O)c1ccc2ccccc2c1,3%,-4%,-1%[46.1 µM],1%,·,·,6%,-3%
O=C(O)C1CCCCC1C(=O)Nc1ccc(OCc2ccccc2)cc1 (stereo not given),-3%,·,·,3%,·,·,29%,-7%
COc1ccc(C(=O)COc2ccccc2N2C(=O)C3C4C=CC(C4)C3C2=O)cc1 (stereo not given),17%,0%,6%[46.1 µM],-4%,0%,-6.3%,12%,4%
COc1cccc(CNS(=O)(=O)c2cc3c(cc2Cl)NC(=O)CO3)c1,2%,·,·,-3%,·,·,0%,5%
Cc1ccc(N2C(=O)N(CC(=O)Nc3ccc(C)c(C)c3[N+](=O)[O-])C(=O)C2C)cc1 (stereo not given),-7%,11%,-18%[46.1 µM],-1%,·,·,-8%,·
COc1ccc(C2CC2/C(=N/OC(=O)c2cccs2)c2ccccc2)cc1 (stereo not given),1%,?,?,-26%,-17%,-3.2%,24%,-15%
Cc1csc(NC(=O)CSc2nnc(C)s2)n1,0%,?,17%,-3%,-11%,-0.2%,-6%,5%
O=C1CN=C(c2ccccc2)c2cc([N+](=O)[O-])ccc2N1,0%,·,·,-2%,-4%,0.6%,0%,·
Cc1ccc(N2C(S)=C(C#N)C(=O)NC23CCCCC3)cc1,6%,4%,8%,-26%,15%,-8.3%,15%,-5%
CC1CN(C(=S)Nc2ccccc2)N(c2ccccc2)C1 (stereo not given),-5%,21%,-2%,-1%,·,·,-13%,·
O=C(NCc1cccs1)C1CCCN(S(=O)(=O)c2ccc3c(c2)OCO3)C1 (stereo not given),-3%,-13%,0%,2%,-14%,3.8%,-17%,-9%
COC(=O)CSc1nnc(CNc2ccc(F)cc2)o1,-4%,3%,1%,-4%,-4%,3.2%,15%,-6%
CCSc1nnc(NC(=O)c2ccc(F)c(S(=O)(=O)N3CCOCC3)c2)s1,-10%,3%,-6%,-1%,·,·,-27%,·
Cc1n[nH]c(C)c1CS(=O)(=O)c1ccccc1,-9%,-2%,8%[46.1 µM],2%,·,·,1%,·
COc1cccc(C(=O)NC(=S)Nc2ccc(N(C)C)cc2)c1,-16%,-13%,?,-17%,-7%,-12%,16%,-4%
COc1ccc(N2CCN(Cc3nc4ccsc4c(=O)[nH]3)CC2)cc1,16%,-1%,6%,-3%,0%,-1.0%,-9%,4%
Cc1cc(N/C=C/C(=O)c2ccc(Br)cc2)no1,8%,-6%,4%,0%,?,-4.8%,29%,-2%
Cc1ccc(-n2ncc3c2CC(C)(C)CC3NC(=O)c2ccc[n+]([O-])c2)cc1 (stereo not given),-6%,-23%,-25%,1%,·,·,-18%,-2%
COCCNc1nc(C)cc(-c2cc(C(=O)NC3CCCC3)on2)n1,-16%,·,·,-2%,·,·,-21%,3%
C=CCSc1nc2c(cnn2-c2ccc(C)c(C)c2)c(=O)[nH]1,19%,·,·,4%,?,2.8%,-13%,2%
COC(=O)NC1c2ccccc2Oc2ccc(C)cc21 (stereo not given),12%,·,·,0%,·,·,-2%,5%
CN(Cc1c(C(=O)N2CCCCCCC2)nc2ccc(Cl)cn12)C1CCOC1 (stereo not given),-15%,-11%,7%,-6%,·,·,3%,12%
CCn1c(=O)c2cc(C(=O)N3CCN(C)CC3)sc2c2ccccc21,5%,·,·,-6%,-5%,-6.2%,13%,3%
Cn1cnnc1SCC(=O)Nc1ccccc1,-2%,·,·,25%,1%,-2.3%,0%,-7%
COc1ccc(C2=C(N3CCN(c4cccc(C)c4C)CC3)c3ccccc3C2=O)cc1,·,-9%[46.1 µM],-21%[46.1 µM],·,9%,-9.5%,-21%,·
CC(CN1CCOCC1)OC(=O)c1cccs1 (stereo not given),26%,21%,-1%,-6%,6%,5.4%,-3%,-12%
CC(=O)Nc1c(C(=O)N2CCOCC2)sc2nc3c(cc12)COC(C)(C)C3,-4%,13%,-2%,3%,-6%,4.8%,-15%,-8%
COC(=O)c1ccc(S(=O)(=O)NCc2ccc(OC)cc2)n1C,1%,3%,-5%,0%,·,·,-7%,-4%
COc1ccc(OC)c(NC(=O)C2C3CC4OC(=O)C2C4C3)c1 (stereo not given),-3%,10%,3%,-8%,-6%,1.4%,-13%,1%
Cc1cccc(C(=O)N[C@H](C(=O)NCc2cccs2)C(C)C)c1,-30%,0%,2%,·,·,·,-21%,·
COc1ccc(N(C(=O)c2cc(OC)c(OC)c(OC)c2)S(=O)(=O)c2ccc(C)cc2)cc1,·,?,·,·,?,-1.4%,-21%,·

# Screening data from PubChem.
